From PubChem BioAssay
CDC25B-CDK2 inh: human CDC25B-CDK2/CyclinA binding inhibition | HTRF CDC25B-CDK2/CyclinA binding, anti-His/anti-Flag; active compounds read high | P30305+P24941 | 0.72% of 94,000 active | AID 1259370 | z-score (test concentration not listed);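 also: score is relative to mean and SD of negative controls; strong numbers were not always called active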
HIV TAR-Tat: HIV-1 TAR-Tat binding disruption; z-score (concentration not given with the values); AID 1259389; 0.6% of 100,000 active; HIV-1 TAR RNA, Tat peptide displacement FRET; active compounds read high;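 also: score is relative to mean and SD of negative controls; some compounds called inactive have numbers as strong as hits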
An asterisk follows results filed as active; x = not tested or not shown; & = joins results of further samples.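 The calls were made as follows: active = z-score from 3 up in half or more of its runs; inactive = the rest.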 Only part of the results is shown. The share of hits here may be higher or lower than overall.

SMILES	CDC25B-CDK2 inh	HIV TAR-Tat
CC(NC(C)(C)C)C(=O)c1cccc(Cl)c1 (centres undefined)	-1.2	0.14&1.7&0.28
CN(C)CC1CCCCC1=O (centres undefined)	-2.1	x
COC(=O)COc1ccc(Cl)cc1Cl	x	0.59
Fc1cccc(CN2CCN(Cc3ccccc3Cl)CC2)c1	-0.55	0.1
CC(C)CC(=O)NC1CCSC1=O (centres undefined)	-0.86	2.3
Cc1c([N+](=O)[O-])cc2c(c1[N+](=O)[O-])C(C)(C)CC2(C)C	-0.34	x
COc1ccc(C[C@H]2NC[C@H](O)[C@H]2OC(C)=O)cc1	x	-1.6
CN(C)C(=O)Oc1nc(-c2ccc(Cl)cc2)cs1	-2.5	x
O=c1[nH]c(=S)[nH]c(O)c1-c1ccccc1	-0.65	x
CN1CCC2(CC1)CC1CC3C=CC1(CN2)O3 (centres undefined)	-1.5	x
Cc1[nH]nc2c1C(c1ccc3c(c1)OCO3)SCC(=O)N2 (centres undefined)	-1.7	2.6
Cc1ccc(C(=O)C2CN3CCC2CC3)cc1 (centres undefined)	-2.8	1.4
O=C(CSCc1nc2ccccc2c(=O)n1-c1ccccc1Cl)Nc1ccccc1	-0.07	x
CC1(C(=O)O)C2CCC(O2)C1(C)C(=O)O (centres undefined)	-2.1	x
COc1cc(CNCCc2c[nH]c3ccccc23)cc(OC)c1O	-1.9	x
NC1=NC(c2cccnc2)n2c(nc3ccccc32)N1 (centres undefined)	-0.66&-1.3	-2.2
CN(C)C(=O)Oc1ccc2nnc3ccnn3c2c1	-1.2	x
Cc1nn(-c2nc3ccccc3s2)c2c1C(c1cc(F)ccc1F)SCC(=O)N2 (centres undefined)	-1.1	0.73
CN1CC=C(c2noc(CCC(=O)Nc3ccc(F)cc3F)n2)CC1	-2.5	0.35
CCCCN1CC2CC=C(Cl)CC2C1 (centres undefined)	-0.79	x
CC(C)Oc1cccnc1N(C)C1CCN(Cc2ccccc2)CC1	-0.74	x
CCNC(=O)[C@H]1O[C@@H](n2cnc3c(N)ncnc32)C(O)[C@H]1O (some centres undefined)	-2.2	x
C=CCOC(=O)C1=C(C)OC(N)=C(C#N)C12C(=O)N(CC(N)=O)c1ccccc12 (centres undefined)	-1.6	x
Cc1ccc(C(c2c(O)[nH]c(=O)[nH]c2=O)N2CCCC2)cc1 (centres undefined)	-1.3	x
Cc1[nH]c2ccccc2c1C1N2CC3(C)CN1CC(C)(C2)C3 (centres undefined)	-0.68	x
CCCCP(=S)(C(C)C)C(C)C	-1.1	x
CC12CN3CC(c4ccccc4)(CN(C1)C3c1cccs1)C2=O (centres undefined)	-1.3	0.99
CN(C)c1ccc(C2N(c3ccccn3)C(=O)C3CCCN32)cc1 (centres undefined)	-2.5	x
Clc1ccc(C2N3CCCN23)cc1 (centres undefined)	-1.7	-0.71
O=S(=O)(c1ccc(O)cc1)c1ccc(O)cc1	-0.34	1.1
CC(C)c1cc(Br)c(NC(=O)Nc2cccnc2)c(Br)c1	-0.84	x
O=c1cccc2n1CC1CNC[C@H]2C1	x	0.68
CNc1ccc(Br)cc1C(=O)c1ccccc1Cl	-1.2	1.2
COc1ccc(NC2=NCC(C)S2)cc1 (centres undefined)	2	1.1
Cn1c2ccccc2c2c(C(=O)N3CCC4(CC3)OCCO4)cn(C3CCCC3)c(=O)c21	-1.4	x
COCCCNC(=O)N1Cc2ccccc2-n2cccc2C1c1cc(F)cc(F)c1 (centres undefined)	x	1.1
C/C(=C/C=C/[C@@H](C)C(=O)O)[C@H]1CN[C@H](C(=O)O)[C@H]1CC(=O)O	x	2.6
Cc1ccccc1-n1c(/C=C/c2ccc([N+](=O)[O-])o2)nc2ccccc2c1=O	-1.8	-2.7
CCOP(=S)(OCC)SCOC(=O)NCC(=O)OC	-1.4	x
O=C(COc1ccc(Cl)cc1)NC1CN2CCC1CC2 (centres undefined)	-2.3	2.4
CC(C)C1c2cccn2-c2ccccc2CN1C(=O)Nc1ccc(Cl)cc1 (centres undefined)	x	1.8
CCC1(C(=O)c2ccc(F)cc2)C2c3cc(Br)ccc3OC(=O)C21C(=O)OC (centres undefined)	0.72	0.73
NCCCP(=O)(O)O	-0.18	x
CCOC(=O)c1cc(S(=O)(=O)N2CC3CC(C2)c2cccc(=O)n2C3)cn1C (centres undefined)	-1.8	2.6
O=C1CC(c2cccnc2)Nc2ccc3ccccc3c21 (centres undefined)	-1.6	2.3
COc1ccc(CCNCC2CCOC(C)(C)C2)cc1OC (centres undefined)	-0.12	0.44
Cc1ccc2nc3c(cc(C#N)c(=O)n3Cc3ccccc3Cl)c(=O)n2c1	-1.8	-0.71
COc1ccc(C2SCC(=O)Nc3n[nH]c(C)c32)cc1Br (centres undefined)	-1.6	1.6
CC1(C)CC(n2[nH]c(=O)c3c2NC(=O)CSC3c2ccc(Br)cc2)CCO1 (centres undefined)	0.23	0.97
O=C(Nc1ccc2c(c1)OCCO2)N1Cc2ccccc2-n2cccc2C1c1ccc(F)cc1 (centres undefined)	x	-0.36
S=P(NNc1ccccc1)(c1ccccc1)c1ccccc1	-0.99	x
O=C(O)CC(O)C(Cl)(Cl)Cl (centres undefined)	-0.17	x
CCC1c2cccn2-c2ccccc2CN1C(=O)Nc1cccc(SC)c1 (centres undefined)	x	0.8
CN1CC=C(c2noc(CCC(=O)Nc3ccc(F)cc3)n2)CC1	x	-0.31
CN1CC=C(c2noc(CCC(=O)Nc3nccs3)n2)CC1	-2.4	2.5
CN1CCc2cc(O)cc3c2[C@H]1Cc1ccc(O)c(O)c1-3	-0.62	x
O=C(O)C(c1c(O)c2ccccc2oc1=O)c1c(O)c2ccccc2oc1=O	-3.2	x
O=C(NC1CCCC1)N1Cc2ccccc2-n2cccc2C1c1cccs1 (centres undefined)	x	0.97
Cc1[nH]c(=O)[nH]c(=O)c1C1N2CC3(C)CN1CC(C)(C2)C3=O (centres undefined)	-1.5	-0.07
O=C(c1ccccc1)C12CN3CN(CN(C3)C1)C2	-1.7	1.6

Quoted from the listing.
CDC25B-CDK2 inh, `CC1(C)CC(n2[nH]c(=O)c3c2NC(=O)CSC3c2ccc(Br)cc2)CCO1` (centres undefined) : 0.23
CDC25B-CDK2 inh, `O=C(c1ccccc1)C12CN3CN(CN(C3)C1)C2` : -1.7

(further entries)
SMILES	CDC25B-CDK2 inh	HIV TAR-Tat
CC12CN3CC(C)(CN(C1)C31CCOCC1)C2=O	-2.4	x
C[N+]1([O-])[C@@H]2CC[C@H]1CC(OC(=O)C(CO)c1ccccc1)C2 (some centres undefined)	x	2
Cc1cc(C)nc(-n2nc(C)c3c2NC(=O)CSC3c2cc(F)cc(F)c2)n1 (centres undefined)	-1.9	1
CCc1nnc(NC(=O)CCc2nc(C3=CCN(C)CC3)no2)s1	-2	x
O=S1(=O)N(Cc2ccc(F)cc2)CCCN1Cc1ccccc1Cl	x	1.1
CN1CCC[C@@H]1Cc1c[nH]c2ccc(Nc3ncccc3[N+](=O)[O-])cc12	-1.2	x
CN(C)CC#Cc1ccc(C=C(C#N)C#N)cc1	-0.66	x
COc1cc(C2C(C#N)=C(N)Oc3c2c(=O)oc2ccccc32)cc(OC)c1OC(=O)c1ccco1 (centres undefined)	-1.6	x
CN1CCN(c2nnc(N)s2)CC1	x	3.2
CS(=O)(=O)OCCN1CCN(S(C)(=O)=O)CC1	-1.5	x
Clc1ccc(Cl)cc1	x	-0.73
CN(C)Cc1cc(Cl)ccc1OC(=O)N(C)C	-1.1	-0.06
CSc1ncccc1C1=N/C(=C\N(C)C)C(=O)O1	-1.4	x
O=c1cccc2n1CC1CC2CN(CC(O)CN2CC3CC(C2)c2cccc(=O)n2C3)C1 (centres undefined)	x	0.44
CC1N=C(c2ccccc2)c2ccccc2N(CC(=O)Nc2ccc(N(C)C)cc2)C1=O (centres undefined)	-2.8	x
Cc1nn(-c2ccc(F)cc2)c2c1C(c1cccc(Br)c1)SCC(=O)N2 (centres undefined)	-2.4	1.5
CN1C(=O)Oc2ccc(Cl)cc2C1O (centres undefined)	-0.86	x
Fc1ccc(CN2CCN(c3ccc(F)cc3)CC2)cc1	-0.89	x
C[C@H](N)C(=O)N[C@@H](C)C(=O)N[C@@H](Cc1ccccc1)C(=O)CCl	x	0.42
CN=C1CN(O)C(c2ccccc2)=c2cc(Cl)ccc2=N1	x	1.2
O=C(N1CCOCC1)C(Cl)(Cl)Cl	-2.1	x
COC(=O)C(=C=N)C=C(/C=C(/C#N)C(=O)OC)/C=C(/C#N)C(=O)OC	-3	x
CCOc1ccccc1NC(=O)N1Cc2ccccc2-n2cccc2C1C(C)C (centres undefined)	x	0
COc1nc(C)nc(NC(=O)NS(=O)(=O)c2ccccc2Cl)n1	-0.37	x

By substructure: the compounds so far with a cyano group.
SMILES	CDC25B-CDK2 inh	HIV TAR-Tat
C=CCOC(=O)C1=C(C)OC(N)=C(C#N)C12C(=O)N(CC(N)=O)c1ccccc12 (centres undefined)	-1.6	x
Cc1ccc2nc3c(cc(C#N)c(=O)n3Cc3ccccc3Cl)c(=O)n2c1	-1.8	-0.71
CN(C)CC#Cc1ccc(C=C(C#N)C#N)cc1	-0.66	x
COc1cc(C2C(C#N)=C(N)Oc3c2c(=O)oc2ccccc32)cc(OC)c1OC(=O)c1ccco1 (centres undefined)	-1.6	x
COC(=O)C(=C=N)C=C(/C=C(/C#N)C(=O)OC)/C=C(/C#N)C(=O)OC	-3	x

Later entries.
SMILES	CDC25B-CDK2 inh	HIV TAR-Tat
Cc1nn(-c2ccccc2)c2c1C(c1ccsc1)SCC(=O)N2 (centres undefined)	-1.4	1.1
CCCCCn1cc(C(=O)c2ccc(OC)c3ccccc23)c2ccccc21	x	-0.17
C#CCN(C)[C@H](C)Cc1ccccc1	x	0.05
CCCCCCCCCCCCCCCC[n+]1ccccc1	x	0.83
CN1CC[C@]2(c3cccc(O)c3)Cc3nc4ccccc4cc3C[C@H]2C1	x	-0.29
c1ccc2c(CCNCc3ccc4c(c3)OCO4)c[nH]c2c1	0.65	x
COc1ccc(C(=O)OC2CC3CCC(C2)[N+]3(C)[O-])cc1OC (centres undefined)	-1.1	x
O=C(Nc1ccccc1)N1Cc2ccccc2-n2cccc2C1c1ccccc1 (centres undefined)	x	-1.1
O=C1CCN(CC(=O)c2ccc3cc[nH]c3c2)CC1	2	0.14
c1ccc2c(CNCCc3c[nH]c4ccccc34)cccc2c1	3.6	-1
CCCCC/C=C\C/C=C\C/C=C\C/C=C\CCCC(=O)NCCO	x	1.3
CCOCCCNC(=O)N1Cc2ccccc2-n2cccc2C1CC (centres undefined)	x	1.4
N#CC1=C(N)Oc2c(c(=O)oc3ccccc23)C1c1ccc(F)cc1 (centres undefined)	-1.8	x
Cc1nn(-c2ccccc2)c2c1C(c1cccc(F)c1F)SCC(=O)N2 (centres undefined)	-1.2	0.66
CC(C)NC(=O)N1Cc2ccccc2-n2cccc2C1c1ccc(Cl)cc1 (centres undefined)	x	4.3
Cc1cccn2c(=O)c3cc(C#N)c(=O)n(-c4ccc5ccccc5c4)c3nc12	-1	-1.6

In the list so far, these have a nitro group on carbon:
SMILES	CDC25B-CDK2 inh	HIV TAR-Tat
Cc1c([N+](=O)[O-])cc2c(c1[N+](=O)[O-])C(C)(C)CC2(C)C	-0.34	x
Cc1ccccc1-n1c(/C=C/c2ccc([N+](=O)[O-])o2)nc2ccccc2c1=O	-1.8	-2.7
CN1CCC[C@@H]1Cc1c[nH]c2ccc(Nc3ncccc3[N+](=O)[O-])cc12	-1.2	x
